Source: PubChem
Mtb bLac sens: beta-lactam sensitization of Mtb H37Rv; hit rate 0.27% among 330,000; AID 434955; M. tuberculosis H37Rv growth with meropenem, percent inhibition; hits of this screen are not shown here; inhibition, % at 25 µM;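 active = about 74% or more and at least 40 points above the plate without the antibiotic, then above 30% in a dose series; inconclusive = first-round hits that could not be retested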;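 note: growth measured after seven days incubation then overnight dye step; 0% = bacteria only wells and 100% = bacteria with antibiotic; twin plates without the antibiotic show which effects depend on it; some results filed as inactive read as strong as hits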
YopH inh: blocks Yersinia enterocolitica YopH tyrosine phosphatase. fluorescence Ex485/Em525. inhibition, %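 (about 10 µM by stock and volumes)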. hit rate 0.16% among 140,000;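 active = inhibition of 50% or more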;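 note: controls were vehicle for no effect and minimum signal wells for full effect; inactives centre near -20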
Mtb H37Rv: M. tuberculosis H37Rv growth inhibitors, H37Rv strain (AID 1626) | M. tuberculosis H37Rv growth inhibition; higher % means a stronger effect | one-dose inhibition, % at 10 µM; IC50 in µM for titrated hits | hit rate 0.95% among 220,000;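 active = confirmed in a dose series; inconclusive = inhibition above 80% but not taken into the dose series; inactive = below 80% or under 30% at every dose of the series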;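 note: bacteria incubated seven days before Alamar blue readout; 0% = bacteria only wells and 100% = bacteria with antibiotic wells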
Arbovirus anti: arbovirus infection inhibition. arbovirus infection cell-based antiviral screen. inhibition, % at 10 µM. hit rate 0.37% among 200,000. AID 1251;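 active = inhibition from about 30%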;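 note: bluetongue infection of BSR cells; cell survival read as ATP light after 72 h; 0% = infected wells without compound and 100% = uninfected wells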
RecA intein inh: Mtb RecA intein splicing inhibition; hit rate 0.75% among 290,000; inhibition, %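 (about 9 µM by stock and volumes)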; cell-free RecA intein splicing, fluorescence; P9WHJ3; AID 2221; in the data active = inhibition above about 30%; inconclusive = no clear call, values can overlap the other calls;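 note: 0% = vehicle wells and 100% = reference inhibitor control wells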
Target sequence (P9WHJ3 whole entry, looked up): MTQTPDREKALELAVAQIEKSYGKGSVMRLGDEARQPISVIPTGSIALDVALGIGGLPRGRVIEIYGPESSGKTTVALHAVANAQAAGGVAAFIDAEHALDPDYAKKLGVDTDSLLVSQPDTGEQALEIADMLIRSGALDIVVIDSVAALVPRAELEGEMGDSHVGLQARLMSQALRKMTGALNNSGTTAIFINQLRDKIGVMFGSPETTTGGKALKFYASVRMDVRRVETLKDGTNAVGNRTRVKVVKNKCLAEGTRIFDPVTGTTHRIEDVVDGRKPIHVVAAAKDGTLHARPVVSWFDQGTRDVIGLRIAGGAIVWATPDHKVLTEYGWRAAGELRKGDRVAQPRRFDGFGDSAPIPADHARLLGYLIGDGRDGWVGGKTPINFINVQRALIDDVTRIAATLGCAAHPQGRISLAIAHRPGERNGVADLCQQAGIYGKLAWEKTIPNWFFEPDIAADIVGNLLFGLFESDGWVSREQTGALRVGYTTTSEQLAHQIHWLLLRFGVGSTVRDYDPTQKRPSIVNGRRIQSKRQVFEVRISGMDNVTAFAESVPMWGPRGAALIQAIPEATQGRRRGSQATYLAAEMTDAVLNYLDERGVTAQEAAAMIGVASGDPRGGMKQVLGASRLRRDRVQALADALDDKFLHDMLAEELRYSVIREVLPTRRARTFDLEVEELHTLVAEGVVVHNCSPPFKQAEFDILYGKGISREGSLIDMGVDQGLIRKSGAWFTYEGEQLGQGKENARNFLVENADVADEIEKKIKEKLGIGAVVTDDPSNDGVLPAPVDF
Arbovirus anti repeat: further read-out of Arbovirus anti, marked with its call; inhibition, %; measured here: 10K subset replicate screen; many hits read low in the repeat;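 first of two repeat runs on a subset; 0% = infected and 100% = uninfected wells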
An asterisk follows results filed as active; u = inconclusive; x = not tested or not shown. These rows are one share of the data (hit frequency here may not be typical).

SMILES	Mtb bLac sens	YopH inh	Mtb H37Rv	Arbovirus anti	RecA intein inh	others
CCCCNc1nc2ccccc2nc1NS(=O)(=O)c1cccs1	-5	6	12%	13	-2.5
Cc1ccc(N/N=C/c2ccc(N3CCOCC3)cc2)cc1C	72	-28	5%	-21	-4.5
Cc1cc(C(=O)NN)c(C)o1	-1	x	6%	-6	-0.5
Cc1cccc(NC(=O)CNC(=O)CN2C(=O)NC3(CCCc4ccccc43)C2=O)c1C (centres undefined)	-2	x	x	x	-0.1
COc1ccc(OC)c(NC(=O)COC(=O)c2nc(Cl)ccc2Cl)c1	-1	x	6%	-1	1.4
CCCCCOC(=O)Nc1ccc(S(=O)(=O)Nc2cccc([N+](=O)[O-])c2)cc1	5	-34	2%	10	-4.4
O=C(CCCSc1nnc(SCCCC(=O)c2ccc(F)cc2)s1)c1ccc(F)cc1	99	-14	0.52µM*	-5	-0.9
Cc1cc(NC(=O)CCN2CCN(CCO)CC2)ccc1Br	-4	x	x	x	-2.7
O=C(CCNS(=O)(=O)c1ccccc1)OCc1nc2ccsc2c(=O)[nH]1	-11	x	x	x	-0.9
COc1ccc(C(=O)N2CCC(CCC(=O)Nc3cccc(C)c3)CC2)cc1	-1	x	x	x	1.9
CCCc1ccc(OCc2nc(-c3ccc(NC(=O)c4ccco4)cc3)no2)cc1	1	-27	20%	-18	1.7
O=C(COC(=O)C1C2CC3OC(=O)C1C3C2)Nc1ccc(Cl)cc1 (centres undefined)	-7	x	x	x	1.2
CCCn1c(N2CCN(C(=O)Nc3ccc(Cl)cc3)CC2)nc2ccccc21	0	x	0%	-17	-1.0
NNc1nc(-c2ccccc2)nc(-c2ccccc2)c1Br	1	x	x	x	-0.1
O=C1/C(=C/c2ccccc2)SC(=S)N1N1C(=O)C2CC2C1=O (centres undefined)	-4	x	-3%	11	-11
CCC(=O)NNC(=O)c1c(O)c2ccccc2[nH]c1=O	-3	x	-13%	2	3.1
Cc1cc(C)cc(N(C(=O)CCC(=O)Nc2cc(C)on2)C(C(=O)NC2CCCC2)c2ccco2)c1 (centres undefined)	2	x	-6%	-5	3.2
COc1cc(/C=N/NC(=O)c2cc[n+]([O-])cc2)cc(OC)c1OC	-8	x	x	x	1.5
CSc1ccccc1NC(=O)Cn1nc([N+](=O)[O-])c(Cl)c1C	-1	x	0%	5	-2.9
CCN1C(=O)c2n[nH]c(C(=O)OC)c2C1=O	7	-38	-8%	2	1.8

Copied from the results shown (6 entries):
SMILES	Mtb bLac sens	YopH inh	Mtb H37Rv	Arbovirus anti	RecA intein inh	others
O=C(COC(=O)C1C2CC3OC(=O)C1C3C2)Nc1ccc(Cl)cc1 (centres undefined)	-7	x	x	x	1.2
CCCn1c(N2CCN(C(=O)Nc3ccc(Cl)cc3)CC2)nc2ccccc21	0	x	0%	-17	-1.0
NNc1nc(-c2ccccc2)nc(-c2ccccc2)c1Br	1	x	x	x	-0.1
O=C1/C(=C/c2ccccc2)SC(=S)N1N1C(=O)C2CC2C1=O (centres undefined)	-4	x	-3%	11	-11
CCC(=O)NNC(=O)c1c(O)c2ccccc2[nH]c1=O	-3	x	-13%	2	3.1
Cc1cc(C)cc(N(C(=O)CCC(=O)Nc2cc(C)on2)C(C(=O)NC2CCCC2)c2ccco2)c1 (centres undefined)	2	x	-6%	-5	3.2

(list continues)
SMILES	Mtb bLac sens	YopH inh	Mtb H37Rv	Arbovirus anti	RecA intein inh	others
O=C(CSc1nc2sc3c(c2c(=O)[nH]1)CCC3)NCCO	-1	x	-10%	x	-3.1
CCc1ccc(C2C(C#N)=C(N)N(N(C)C)C3=C2C(=O)CCC3)cc1 (centres undefined)	-3	x	x	x	-6.0
COC(=O)c1[nH]c2ccccc2c1CN1CCOCC1	-9	x	x	x	-1.6
Cc1c(/C=N\NC(=O)c2c[nH]c3ccccc23)cnn1C	5	x	13%	-2	-4.3
CCN(CC)CCOCCOc1ccc(Cl)c2ccccc12	19	x	6%	-31	x
Cc1ccc(Sc2nc([N+](=O)[O-])nn2C)cc1	3	-19	16%	-9	-0.8
CCOc1cc(/C=C2\C(=O)N(CCC#N)N=C2C)ccc1OCC(N)=O	-1	x	3%	3	88*
O=C(c1cc([N+](=O)[O-])ccc1N1CCOCC1)N1CCN(S(=O)(=O)c2ccc(F)cc2)CC1	1	x	x	x	2.6
O=C1CCCC(=O)C1=C1SCCS1	-8	-22	-19%	-2	4.5
COCCn1c(N)c(N(Cc2ccccc2)C(=O)c2ccc3ccccc3c2)c(=O)[nH]c1=O	-10	x	4%	3	0.7
COc1ccccc1NC(=O)C(C)OC(=O)c1ccc(-n2cnnn2)cc1 (centres undefined)	6	x	x	x	-1.6
O=C(Nc1ccc(-c2csc(Nc3ccccc3)n2)cc1)c1ccccc1	21	x	x	x	0.1
O=C(C[n+]1cc(Br)cc2ccccc21)c1ccc(Cl)cc1	u	x	x	x	3.9
CCOCCN(C(=O)c1ccccc1Cl)c1cccc(C)c1C	-13	x	-7%	x	8.7
COc1ccc(-c2cc(C(=O)N3CCN(c4ccccc4)CC3)no2)cc1OC	8	4	-2%	-18	1.3
O=C(Cn1c2ccc(F)cc2c2nc3n(c(=O)c21)CCS3)Nc1ccc(Cl)cc1F	-2	x	5%	-10	-1.2
Cc1ccc(-c2c3c(=O)n(C)c(=O)n(C)c3cn2-n2cnnc2)cc1	10	-22	1%	8	-27
COc1ccc(-n2nc(C(=O)NCC(=O)NCCC3=CCCCC3)c3ccccc3c2=O)cc1OC	7	x	x	x	1.0
CC(=O)OCC(=O)NCCCOc1cccc(CN2CCCCC2)c1	2	x	-2%	x	-1.5
COc1ccccc1NC(=O)CSc1nc2sc(C)c(C)c2c(=O)n1C	2	x	x	x	5.3
CSc1ccccc1OCc1cc(C(=O)NC2CCOC2)no1 (centres undefined)	-1	x	x	x	1.1
O=S1(=O)CCN2C=Nc3sc4c(c3C2=N1)CCCC4	-4	-14	-9%	-4	2.2
CCN1CCN(CC(O)COc2ccc(C)c(C)c2)CC1 (centres undefined)	-5	-33	-6%	0	-2.7
CCOC(=O)C1CCN(C(C(=O)NC2CCCC2)c2ccc(C)cc2)CC1 (centres undefined)	2	-48	4%	-1	0.1
COC(=O)c1ccccc1NC(=O)c1ccc(-c2cccc(Cl)c2)o1	11	-6	-13%	7	-1.8
O=C(CSc1nc2ccccc2c(=O)n1-c1ccc(OC(F)F)cc1)NCc1cccs1	3	-29	-2%	-15	-0.2
CN(C)/C=C(/C(=O)c1ccc(Cl)cc1)S(=O)(=O)c1ccc(Cl)cc1	4	-28	x	7	3.7
COc1ccc(C)cc1NS(=O)(=O)c1ccc2c(c1)n(C)c(=O)n2C	1	x	0%	2	-6.8
CC(=O)c1cccc(NC(=O)c2sc3nc4n(c(=O)c3c2C)CCCCC4)c1	9	x	x	x	-3.5
Cc1ncc(CO)c(/C=N/NC(=S)Nc2ccc(F)cc2)c1O	-6	-20	0%	-14	-10
CCOC(=O)N1CCN(S(=O)(=O)N2CCCC(C(=O)NCc3ccccc3OC)C2)CC1 (centres undefined)	1	x	x	x	1.4
CCc1cc2c(Sc3nc4ccccc4s3)ncnc2s1	x	-6	16%	-13	27
COc1ccc(OC)c(CCNC(=O)Cn2sc3nc(C)cc(C)c3c2=O)c1	-2	-40	3%	-29	3.3	Arbovirus anti repeat=-29
Cc1cccc(C)c1NC(=S)N(CCN(C)C)C(C)c1ccccn1 (centres undefined)	-5	x	-2%	4	-4.4
O=C(NCCO)c1cc2cc(Cl)cc(Cl)c2oc1=O	4	x	8%	10	1.6
CN(C)S(=O)(=O)c1ccc(N2CCCC2=O)c([N+](=O)[O-])c1	-1	-21	6%	4	8.8
CC1(c2nnc(-c3cccc(Cl)c3)o2)CC(c2cccnc2)=NO1 (centres undefined)	3	x	-6%	x	-0.3
Cn1c(=O)c(=O)n(C)c2cc(S(=O)(=O)N3CCN(c4cccc(C(F)(F)F)c4)CC3)ccc21	-3	-5	-7%	-13	-0.3
O=C1CC(NCc2ccco2)C(=O)N1CCc1ccccc1 (centres undefined)	x	-18	6%	16	-0.6
O=Cc1c(N2CCSCC2)nc2ccccn2c1=O	55	x	7%	x	0.1
CCOC(=O)c1cnn(-c2nc(-c3ccc(C)cc3)cs2)c1C(F)(F)F	9	-45	-5%	5	1.8
Cc1ccc(C(=O)NC2CCSC2=O)cc1 (centres undefined)	10	7	-7%	-5	9.0
CCOc1ccc(S(=O)(=O)N2CCCCC2)cc1NC(=O)CN1C(=O)NC(C)(c2ccccc2)C1=O (centres undefined)	-6	x	x	x	1.7
COCCNC(=O)c1cc(-c2ccc3c(c2)OCO3)on1	-8	-17	x	-10	-1.3
Cc1cc(C)c(NC(=O)CNC(=O)COC(=O)Cc2cccs2)c(C)c1	0	x	x	x	-2.9
O=C(Cc1ccccc1)Nc1ccc(NC(=O)c2ccccc2)nc1	-7	x	x	x	1.2
Cc1cc(C)nc(N/N=C/c2cn[nH]c2-c2ccccc2)n1	-4	x	-7%	x	-3.1
CN(C)CCCN(C(=O)COc1ccc(Cl)cc1)c1nc2cc3c(cc2s1)OCCO3	-5	x	x	x	-2.2
Clc1ccc(OCCCCN2CCCCC2)cc1	-4	x	x	x	-2.1
Cc1nc(C)c(C(=O)N2CCCC(CCC(=O)NCc3ccc(F)c(F)c3)C2)s1 (centres undefined)	1	x	7%	1	x

New compounds follow:
SMILES	Mtb bLac sens	YopH inh	Mtb H37Rv	Arbovirus anti	RecA intein inh	others
CCCCN(CC)C(=O)c1ccc(Cl)c(Cl)c1	10	-26	-5%	4	1.9
COc1cc(C2CC(=O)N(CC(=O)NCc3ccco3)c3ccccc3S2)cc(OC)c1OC (centres undefined)	2	-36	-5%	-2	3.8
O=C(Nc1nccs1)c1cc2c(s1)CCCCC2	100	3	5.6µM*	23	5.2
COc1cccc(-n2c(N)c(C(=O)Nc3c(C)n(C)n(-c4ccccc4)c3=O)c3nc4ccccc4nc32)c1	7	x	15%	x	x
CC1CCc2nc(NC(=O)CN3CCN(Cc4ccc5c(c4)OCO5)CC3)sc2C1 (centres undefined)	66	18	64%	-12	-4.8
COc1ccc(CCNC(=O)CCNC(=O)N2CC(=O)Nc3ccccc32)cc1OC	-1	x	x	x	-0.3
CC(=O)C1=C(C)OC(N)=C(C#N)C1c1cccnc1 (centres undefined)	-2	x	3%	-1	-10
O=C(CNC1CCCCC1)N1CCC2(CC1)OCCO2	-11	-5	-3%	8	-5.5
Cc1ccc(CSc2nnc(-c3cnccn3)n2C)cc1	0	x	2%	x	1.2
Cc1nnc(N(Cc2ccco2)C(=O)c2ccc(C#N)cc2)s1	1	-14	-2%	-8	-0.1
COc1ccc(C2=NN(C(=O)CSc3nc(=O)n4cccc(C)c4n3)C(c3ccc(C)cc3)C2)cc1 (centres undefined)	5	x	x	x	2.4
COc1ccc(C(=O)N/N=C(/C)c2cccc(NC(=O)c3ccccc3F)c2)cc1	1	x	x	x	3.1
Cc1ccc(C(=O)Nc2nc(COc3ccccc3)cs2)s1	87	-12	6%	-24	11
Cc1ccc(N=c2c([N+](=O)[O-])nn(-c3ccc(Cl)cc3)n2O)cc1C	48	x	37%	-12	-3.8
O=C(Cn1cc([N+](=O)[O-])cn1)NCc1ccco1	-4	x	-5%	-3	0.3
N#Cc1ccc(-c2csc(NNC(=O)c3ccc(Br)cc3)n2)cc1	32	-41	-3%	-22	-0.4
Cc1cc(C(=O)COc2ccccc2Cl)c(C)n1-c1ccc2c(c1)OCO2	-4	-4	8%	7	11
CCN1C(=NCCCCO)N[C@@H](c2cccc(F)c2)C(C(=O)OC)=C1C	-1	x	x	x	0.1
c1c2c(cc3sc(N4CCCCC4)nc13)OCCO2	4	-26	-1%	-3	-7.2
O=C(O)/C=C/C(=O)Nc1ccc(Oc2ccccc2)cc1	0	x	x	x	10
COC(=O)CSc1nc2cc(OC)ccc2cc1C#N	49	-17	-8%	-16	4.6
COC(=O)c1ccc(-n2c(CCC(=O)O)ccc2-c2ccccc2)cc1	-6	x	x	x	0.2
CCN(CC)c1ccc(C(=O)NNC(=O)CCl)cc1	99	x	1%	9	10
CC(C)(C)NC(=O)c1c(F)c(F)c(F)c(F)c1F	-9	-15	9%	7	-1.6
Cc1ccc(S(=O)(=O)NN2C(=O)c3ccccc3NC2c2ccccc2F)cc1 (centres undefined)	8	x	x	x	1.8
COc1ccc(N(C(=O)c2snc(C(N)=O)c2N)C(C(=O)NC2CCCC2)c2cc(OC)ccc2OC)cc1 (centres undefined)	1	x	x	x	1.8
CCCSc1nnc(NC(=O)Cc2ccc(OC)c(OC)c2)s1	-7	x	-4%	12	0.7
[O-]/C(=C(\C(=S)Nc1cccc2ccccc12)[n+]1ccccc1)c1ccc(OC(F)F)cc1	x	x	2%	3	x
CC1CN(c2ccccc2)NC1=O (centres undefined)	0	x	-2%	-2	x
